# High-throughput results deposited in PubChem BioAssay by National Center for Advancing Translational Sciences (NCATS).
# VDR inhibitor – blocks the human vitamin D receptor; actives 0.93% (n = 400,000); P11473; VDR-SRC2-3 peptide fluorescence polarization, 2 h; Potency, µM, without a hit: max response, negative = inhibition, actives largely listed as inhibitors; active = well fitted inhibition curve with a large enough effect; inconclusive = small, poorly fitted or top-dose-only effect, or another doubt; inactive = no such curve, though single readings can be large or run the other way; also: series mostly up to about 120 µM
# Target sequence (P11473 whole entry, looked up): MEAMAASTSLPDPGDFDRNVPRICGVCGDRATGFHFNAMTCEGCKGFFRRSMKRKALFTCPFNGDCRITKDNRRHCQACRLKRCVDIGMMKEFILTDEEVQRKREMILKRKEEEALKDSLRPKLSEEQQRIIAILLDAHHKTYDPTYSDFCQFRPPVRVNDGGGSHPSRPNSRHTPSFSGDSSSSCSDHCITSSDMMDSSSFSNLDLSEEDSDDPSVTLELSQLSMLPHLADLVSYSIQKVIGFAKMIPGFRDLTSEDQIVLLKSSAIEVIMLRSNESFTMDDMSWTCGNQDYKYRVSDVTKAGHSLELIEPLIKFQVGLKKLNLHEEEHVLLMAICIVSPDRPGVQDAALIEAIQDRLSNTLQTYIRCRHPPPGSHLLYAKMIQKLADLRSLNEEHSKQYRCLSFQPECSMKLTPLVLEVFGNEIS
#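 VDR–SRC2-3 interaction, FP format. Cmpds 23 nl via pintool, brief spin, 2 h ambient incubation.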
# * = called active by the depositor; ? = inconclusive; & = joins results of further samples; [ ] = dose if it differs, or a comment. % is scaled to controls: 0 for no effect and ±100 for the full control effect; potency is read from the fitted curve at half-maximal effect.
# Sample of the layout:
VDR inhibitor | molecule
11% | Cc1cccc(Nc2cc(C)nc3nc(Cc4ccc(Cl)cc4)nn23)c1
-9% | COc1ccc(S(=O)(=O)N2C3CCC2CC(NC(=O)NC2CCCCC2)C3)cc1 (configuration not stated)
1% | Cc1cc(S(=O)(=O)C(CNC(=O)COc2ccccc2)c2cccs2)ccc1F (configuration not stated)
34%[activator] | CCn1c(CSCc2ccc(Cl)cc2)nnc1SCC(=O)Nc1cccc(C(=O)O)c1

# This part in full (from the top)
VDR inhibitor | molecule
11% | Cc1cccc(Nc2cc(C)nc3nc(Cc4ccc(Cl)cc4)nn23)c1
-9% | COc1ccc(S(=O)(=O)N2C3CCC2CC(NC(=O)NC2CCCCC2)C3)cc1 (configuration not stated)
1% | Cc1cc(S(=O)(=O)C(CNC(=O)COc2ccccc2)c2cccs2)ccc1F (configuration not stated)
34%[activator] | CCn1c(CSCc2ccc(Cl)cc2)nnc1SCC(=O)Nc1cccc(C(=O)O)c1
-6% | O=C(CSc1nc(=O)n(Cc2ccco2)c2c1CCC2)NCc1ccc(F)cc1
-1% | COC(Cn1cc(C)c(=O)[nH]c1=O)OC
1% | Cc1ccc2c(c1)[nH]c1c(=O)n(CCN3CCNCC3)cnc12
-10% | CCc1ccc(-c2cc(C(=O)NN3CCN(C)CC3)c3ccccc3n2)cc1
-15% | Cc1cccc2c1NC(=O)C2=Nc1ccc(Cl)cc1
-6% | FC(F)(F)c1cc(-c2ccccc2)nc(N2CCOCC2)n1
9% | CC(C)N1CCN(S(=O)(=O)c2ccccc2)c2ccccc21
-5% | Cc1ccc(OCCCC(=O)NNC(=O)c2ccccn2)cc1
-12% | CCc1ccc(S(=O)(=O)c2nnn3c2nc(NCCNC(C)=O)c2ccccc23)cc1
-2% | CCn1c(C)c(C(C)=O)c(NCc2ccccc2)nc1=S
-11% | O=C(NCCOc1ccc(F)cc1)C1CCC(=O)N(CCc2ccccn2)C1 (configuration not stated)
2% | CCc1ccc2c(COC(=O)C3CSC4(C)CCC(=O)N34)cc(=O)oc2c1 (configuration not stated)
12% | O=C(CSc1ncn[nH]1)N/N=C/c1ccc(Br)cc1
6% | COc1ccc(CCN(Cc2cc3cc(C)c(C)cc3nc2Cl)C(=O)C2CC2)cc1
10% | COC(=O)Nc1cc([N+](=O)[O-])ccc1OC
8% | CCOC(=O)NC(Nc1cc(C)on1)(C(F)(F)F)C(F)(F)F
-3% | COc1ccc(-c2nnc3ccc(SC(C(C)=O)C(C)=O)nn23)cc1OC
12% | CCOc1ccc2oc(C(=O)N(C)CCc3ccc(OC)c(OC)c3)c(C)c2c1
-11% | Cc1c(C(=O)N2CCN(c3ccccn3)CC2)oc2c(F)cccc12
-7% | c1cnc(N2CC[N+]3(CCCC3)CC2)nc1
-7% | CN(C)/C=N/S(=O)(=O)c1ccc(Cl)c(Cl)c1
7% | COC(=O)[C@@]1(C)[C@H]2C(=O)N(C)C(=O)[C@H]2[C@H]2CN=C(SC)N21
-5% | CCN(CC)CCNC(=O)C1CCCCN1S(=O)(=O)c1cccc([N+](=O)[O-])c1 (configuration not stated)
2.8µM* | O=C1c2ccccc2CCC1CNCCc1ccc(O)cc1 (configuration not stated)
-3% | COc1ccccc1CNC(=O)Cn1nnnc1CN(C)C(C)C
15%&-2% | COc1ccc(C2CC(c3ccccc3)Oc3c(C)ccc(C(C)C)c32)cc1 (configuration not stated)

# Pulled by structure from above (two):
VDR inhibitor | molecule
-6% | O=C(CSc1nc(=O)n(Cc2ccco2)c2c1CCC2)NCc1ccc(F)cc1
-7% | c1cnc(N2CC[N+]3(CCCC3)CC2)nc1

# Filtered by structure: those above with an NH in an aromatic ring
VDR inhibitor | molecule
-1% | COC(Cn1cc(C)c(=O)[nH]c1=O)OC
1% | Cc1ccc2c(c1)[nH]c1c(=O)n(CCN3CCNCC3)cnc12
12% | O=C(CSc1ncn[nH]1)N/N=C/c1ccc(Br)cc1

# New compounds follow
VDR inhibitor | molecule
19% | COc1ccccc1C1Nc2ccccc2-n2c(-c3ccccc3)c3c(=O)n(C)c(=O)n(C)c3c21 (configuration not stated)
-5% | O=C(O)c1ccc(S(=O)(=O)NC2CCCc3ccccc32)cc1 (configuration not stated)
14µM* | N#Cc1ccc(N=c2ssnc2Cl)cc1
-8% | Cc1ccc(C(=O)O)cc1NCc1ccncc1
-2% | COc1ccc(NC(=O)CCOc2ccccc2)c(OC)c1
7% | COC(=O)Cc1c(C)c2ccc(OCc3nn[nH]n3)c(C)c2oc1=O
-3% | CCOC(=O)c1ccc(Oc2nc(C)nc3c2oc2ccccc23)cc1
? | O=C(Nc1ncccn1)c1ccc([N+](=O)[O-])cc1
-7% | COc1ccccc1/C=C/CN1CCC(Oc2cc(C(=O)NC3CC3)ccc2OC)CC1
-1% | O=C(NCCOc1ccccc1Cl)c1ncn[nH]1
11% | COc1ccc(N2CCN(C(=O)c3ccc(Nc4nc5ccccc5n5nnnc45)cc3)CC2)cc1
-18% | CCNC(=S)Nc1ccc(NC(=O)c2ccccc2O)cc1
-10% | CC(CNC(=O)CN(C)CC(=O)Nc1ccccc1Br)c1ccccc1 (configuration not stated)
1% | COC(=O)CN(c1cc(OC)ccc1OC)S(=O)(=O)c1ccc(OC)c(OC)c1
-4% | FC(F)(F)c1n[nH]c(=S)n1/N=C/c1ccco1
-12% | Cn1c(N=Nc2ccccc2)nc2ccccc21
? | COc1cc2oc(=O)cc(-c3ccc(-c4ccc(NC(C)=O)cc4)cc3)c2c(OC)c1OC
2% | O=C(CCNC(=O)c1ccccc1Cl)NNC(=O)c1ccccc1O
-6% | COCCCNC(=O)C1CCN(C(=O)c2cc3sccc3n2Cc2ccc(F)cc2)CC1
? | Cc1cccc(N=C2NC(=O)/C(=C/C=C/c3ccco3)S2)c1C
-7% | COC(=O)c1ccc(Oc2c(F)c(F)nc(N3CCOCC3)c2F)cc1
1% | O=C(COC(=O)c1cccc(-n2cnnn2)c1)c1ccc(F)cc1
-3% | Cc1ccc2[nH]c(=O)c(C(c3nnnn3CC3CCCO3)N3CCOCC3)cc2c1 (configuration not stated)
1% | CCCCN1C(=O)C(=O)N(CC(=O)c2ccc[nH]2)C1=O
0% | CCc1cccc(NC(=O)c2sc3nc4n(c(=O)c3c2C)CCC4)c1
-15% | Cn1c(=O)c2c(nc(SCC(=O)Nc3ccccc3)n2C)n(C)c1=O
-8% | Cc1csc(=O)n1CC(=O)OCC(=O)Nc1cc(S(=O)(=O)N2CCOCC2)ccc1Cl
1% | COc1cccc(CNC(=O)C(=O)NCC(c2ccco2)S(=O)(=O)c2ccccc2)c1 (configuration not stated)
-13% | CCOc1cc(C2c3c(n[nH]c3C)C(=O)N2c2ccc(C)cc2)ccc1O (configuration not stated)
-19% | CN1CCN(C(=O)CNc2ccc(C(F)(F)F)cc2[N+](=O)[O-])CC1
16% | O=C(Nc1ccc(S(=O)(=O)N2CCCCC2)cc1)C1CC(=O)N(Cc2ccccc2)C1 (configuration not stated)
-5% | CCc1ccc(-c2nc(CS(=O)CC(=O)NCc3cccnc3)c(C)o2)cc1 (configuration not stated)
3% | CSc1ccc(C2NN=C(c3ccccc3)S2)cc1 (configuration not stated)
-21% | COc1ccc(Br)cc1C1Sc2ccccc2NC2=C1C(=O)c1ccccc12 (configuration not stated)
-4% | COc1cccc(CN2C(=O)C3(SCC(=O)N3c3ccc(F)cc3)c3ccccc32)c1 (configuration not stated)
11% | CC(C)=NNc1nc2c(c(=O)n(C)c(=O)n2C)n1CCc1ccccc1
-2% | O=C(CSc1nncs1)NCc1ccc2c(c1)OCO2
-5% | COc1ccc(-c2csc(N(CC3CCCO3)C(=O)c3ccccc3)n2)cc1 (configuration not stated)
-14% | CN1CCC2(CC1)Nc1nc(SCc3ccc(Cl)cc3)nn1C1=C2CN(C)CC1
-3% | CN1c2ccccc2C(C)(C)C12CC(CCl)=NO2 (configuration not stated)
-21% | CO/N=C/CC(=O)c1ccc(OC)cc1
-4%&-7% | CCN1CCCC1=O
14% | O=C1c2[nH]nc(-c3ccccc3O)c2C(c2cccc(O)c2)N1Cc1ccncc1 (configuration not stated)
11% | CC1(C)Cc2c(c(=S)nc(-c3ccccc3)n2CCCN2CCOCC2)CO1
6% | CN1CCN(C2=Cc3ccccc3Sc3cc(F)ccc32)CC1
8% | Cn1nc(-c2ccccc2)c(CSc2ccccc2Cl)c1Cl
-10% | CC(=O)c1ccc(NC(=S)NCc2ccc(Cl)cc2Cl)cc1
-17% | Cc1ccc2c(c1)sc1nc(-c3cc4ccccc4oc3=O)cn12
7% | COc1ccc(C(Nc2ccc(S(=O)(=O)NCC3CCCO3)cc2)C(=O)NC(C)(C)C)cc1OC (configuration not stated)
-16% | Cc1ccc(S(=O)(=O)N2CCN(C(=O)c3cc(S(=O)(=O)N4CCOCC4)ccc3Cl)CC2)c(C)c1
6% | CC1CCN(C(=O)CCCC(=O)N2CCC(C)CC2)CC1
14% | COc1ccc(CCn2c(C)cc3c(c2=O)C(c2ccc4c(c2)OCO4)C(C#N)=C(N)O3)cc1OC (configuration not stated)
-9% | C/C(CC(=O)N(C(C)C)C(C)C)=N\NC(=O)COc1ccc(Cl)cc1Cl
14% | Cc1ccccc1Cn1c(=O)c2c(nc3n2CCCN3Cc2ccccc2)n(C)c1=O
-19% | CCCN(CC(=O)Nc1ccc(C(C)=O)cc1)CC(=O)Nc1ccccc1C
-4% | O=C(CSc1nc2[nH]ncc2c(=O)[nH]1)Nc1ccc(OC(F)(F)F)cc1
-4% | O=C1C=C(NCc2ccncc2)CC(c2ccccc2)C1 (configuration not stated)
-11% | Cc1ccc(OCc2nnc(SCc3nc4ccccc4[nH]3)n2Cc2ccco2)cc1
17% | Cc1ccc(CN2CCN(C3CCN(C(=O)OC(C)(C)C)CC3)C(=O)C2=O)cc1
-8% | CN(NC(=O)c1ccc(Cl)cc1)c1cccc(Cl)n1

# Ordered by heavy-atom count (low to high): 3 of the compounds above
VDR inhibitor | molecule
-21% | CO/N=C/CC(=O)c1ccc(OC)cc1
-4% | FC(F)(F)c1n[nH]c(=S)n1/N=C/c1ccco1
-8% | Cc1ccc(C(=O)O)cc1NCc1ccncc1

# (cont.)
VDR inhibitor | molecule
16% | C=C(C)CNC(=O)CCc1nnc(C2(c3ccc(Cl)cc3)CCC2)o1
-10% | O=C(O)C1CSC(c2ccccc2)N1C(=O)c1ccco1 (configuration not stated)
4% | CCN(CC)c1cc(C)c2cc(NC(=O)CNC(C)=O)ccc2n1
-2% | CCCCn1nc(NC(=O)c2cccc(Cl)c2)c2cc3ccccc3nc21
-1% | Cc1ccc(N/N=C2/CCCNC2=O)cc1
-22% | COc1cc(/C=C(/NC(=O)c2ccc(Cl)cc2Cl)C(=O)O)cc(OC)c1OC
-20% | COc1ccccc1C1CCN(C(=O)c2ccc(Cl)cc2)CC1
10% | Cn1c(=O)c2sccc2n(Cc2cccc(Br)c2)c1=O
21% | CN(C)C(=O)CSc1nnc(Cc2ccccc2)n1Cc1ccco1
-19% | COCCCn1c(=N)c(C(=O)NCc2ccco2)cc2c(=O)n3cccc(C)c3nc21
-20% | Cn1c(N)c(C(=O)COC(=O)C2CCCN2C(=O)c2cccs2)c(=O)n(C)c1=O (configuration not stated)
12% | Cc1cc(C)cc(NC(=O)CCCn2c(=O)c3cccn3c3ccccc32)c1
-4% | CC(=O)[C@@H]1[C@@H]2C(=O)N(Cc3ccccc3)C(=O)[C@@H]2C2c3ccccc3C=CN21 (some centres not stated)
-13% | Cn1c(SCC(=O)c2ccc3c(c2)OCCO3)nnc1C(F)(F)F
-4% | Cc1ccc(C(C(=O)NC2CCCC2)N(Cc2cccs2)C(=O)CNC(=O)c2cccs2)o1 (configuration not stated)
-20% | O=C(c1cnn2ccccc12)N1CCN(C2CCCCC2)CC1
-1% | c1ccc(COC[C@@H]2CO2)cc1
? | CN(Cc1ccco1)c1ncncc1-c1cccc(NS(C)(=O)=O)c1
7% | Cc1ccc(NC(=O)CSc2nnc(C)n3c2cc2sccc23)c(C)c1
? | CC(=O)OCCCNc1cc(Sc2ccc(C)cc2)c2nonc2c1[N+](=O)[O-]
-8% | O=C(Nc1cc2c3c(c1)CC(=O)N3CCC2)c1ccc(Cl)cc1
30% | CCn1cc(C(=O)O)c(=O)c2cc(F)c(N3CCN(C(=S)NC(=O)c4ccc(F)cc4)CC3)cc21
-2% | CC1=C(C(=O)Nc2ccc(C)cc2C)C(c2ccccc2F)n2nc(SCC(=O)c3ccc(C)cc3)nc2N1 (configuration not stated)
6% | CCOC(=O)c1c(NC(=O)c2ccco2)sc(C(=O)N2CCCC2)c1C
2% | C/C(=N\Nc1ccc([N+](=O)[O-])cc1)c1ccc(O)cc1
6% | CCOC(=O)c1sc(=S)n(-c2ccccc2Cl)c1SC
-8% | COc1cccc(NC(=O)Cn2c(=O)oc3cc(S(=O)(=O)N4CCCC4)ccc32)c1
20µM* | CCOC(=O)c1c(NC(=O)/C=C/C(=O)O)sc(C)c1-c1ccc(C(C)(C)C)cc1
-16% | C#Cc1ccc(CN2CCCC(C(=O)Nc3ccccc3Oc3cccnc3)C2)cc1 (configuration not stated)
5% | COc1ccc(NC(=O)N(C)C[C@H]2Oc3c(NC(=O)NC4CCCCC4)cccc3C(=O)N([C@H](C)CO)C[C@@H]2C)cc1
-10%&15% | Cc1ccc2c(c1)N(S(=O)(=O)c1ccc3c(c1)NC(=O)CC(=O)N3)CCO2
-8% | COc1ccccc1CCNC(=O)c1ccccc1SCC(=O)N1CCCC1
3% | Cc1sc(NC(=O)CSc2nnc(-c3ccccc3)o2)c(C#N)c1C
-1% | CCOC(=O)c1cnc2ccc(C(=O)OC)cc2c1Nc1ccc(C(=O)O)cc1
4% | CCC(NC(=O)NCc1ccccc1)(C(F)(F)F)C(F)(F)F
-1% | COCCn1c(=NC(=O)CSC(C)=O)sc2cc(F)ccc21
-7% | CCCCN(C(=O)CCNC(=O)NC12CC3CC(CC(C3)C1)C2)c1c(N)n(CCC)c(=O)[nH]c1=O
11% | O=C(CCc1nc2ccccc2c(=O)[nH]1)Nc1nc(-c2cccs2)cs1
-17% | Cn1c(COc2cccc3cccnc23)nnc1SCC(=O)O
-8% | CCN(CC)c1ccc(-n2c(C)cc(C=O)c2C)cc1

# The list is partial; count on the stated rates, not on these rows.
